NPYLR7 agonist = mosquito NPYLR7 agonism | activation, % at 10 µM | HEK293T NPYLR7/Galpha15, GCaMP6s calcium fluorescence | 0.15% of 270,000 active | AID 1259423; in the data active means activation above about 40%;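 further: 0% = vehicle and 100% = reference agonist at the receptor; some compounds past the cut are filed as inactive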
NPYLR7 agonist max-min = also measured in NPYLR7 agonist; calls as there; activation, %; measured here: Max-Min RFU normalised activation; some inactives read as strong as hits;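 span of the calcium signal over five minutes; 0% = vehicle and 100% = native peptide agonist; compound fluorescence can raise it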
An asterisk follows results filed as active; & = joins results of further samples. These rows are one share of the data; count on the stated rates, not on these rows.

mol	NPYLR7 agonist	NPYLR7 agonist max-min
CCOC(=O)C1CCCCN1CC(=O)N1N=C(c2cc(C)ccc2C)CC1c1ccc(Cl)cc1 (stereo not drawn)	2	4
CC1(c2ccccc2)C2SCC(=O)N2CCN1CC(=O)NN (stereo not drawn)	-3	29
C#CCNC(=O)c1cnc2c(-c3cccc(C(F)(F)F)c3)cnn2c1C	3	-3
C#CCn1cnc(-c2ccccc2)c1NC(=O)c1cc(C)ccc1F	6	4
CCOC(=O)C1CCN(C(=O)c2nn(-c3ccc(C)c(C)c3)c(=O)n(Cc3ccccc3Cl)c2=O)CC1	17	20
O=c1oc2ccc([N+](=O)[O-])cc2cc1-c1csc(Nc2ccc(F)cc2)n1	-3	-7
CCOC(=O)N1CCN(C(=O)CCCSc2ccc(NC(C)=O)nn2)CC1	-1	0
CC(Oc1ccccc1F)C(=O)NCCn1ncccc1=O (stereo not drawn)	3	2
COC(=O)C1CCN(CC(O)COc2cccc(CNCC(F)(F)F)c2)CC1 (stereo not drawn)	12	4
CCOC(=O)C1=C(C)N=c2sc(=Cc3ccc(OC)c(OC)c3)c(=O)n2C1C=Cc1ccccc1 (stereo not drawn)	-6	-9
CCN=C(NC#N)SCC(=O)N(CC)CC	9	15
CCOc1ccc(NC(=O)N(C)Cc2nccs2)cc1C	9	6
Cn1ccnc1C(NCC1CNc2ccnn2C1)c1ccc(F)cc1 (stereo not drawn)	6	4
Cc1cccc(-c2nc3ccccn3c2NC(C)(C)CC(C)(C)C)n1	11	14
CCc1nc(C)c(C(=O)NCCCn2nnc3ccccc32)o1	1	0
O=C(Cn1cccc(C(F)(F)F)c1=O)NCCC12CC3CC(CC(C3)C1)C2	-7	-8
Cc1ccsc1C(=O)N1CCC(C2(Cc3ccc(F)cc3)NC(=O)N(C3CCOC3)C2=O)CC1 (stereo not drawn)	-1	-6
O=C(Nc1cccc(-c2nccs2)c1)N1CCCCCCC1	-5	-6
Cc1c(Cl)cccc1N1N=C2NN(c3ccccc3)C(=N)C2N1 (stereo not drawn)	0	-1
CCC(=O)Oc1ccc(N(C)C2=NS(=O)(=O)c3ccccc32)cc1	-2	-3
CCn1nnc2c(SCC(=O)NC(C)(C)C)ncnc21	-1	29
Cc1ccc2nc(C3CC3)cc(C(=O)NCc3c(C)noc3C)c2c1	-2	-4
C=CC(=O)NC1CC2CCC(C1)N2Cc1ccc(OC)cc1OC (stereo not drawn)	1	-1
COc1ccc2sc(C(=O)Nc3ccc(Cc4ccccc4)cc3)c(Cl)c2c1	-3	-11
Cc1c(C(=O)NCCC2CN(C)CCO2)n(C)c2c(C)cccc12 (stereo not drawn)	-1	-2
O=C1NCCN2CCN(Cc3cccc4nonc34)CC12 (stereo not drawn)	15	3
CN(CCNC(=O)COc1ccc(CC#N)cc1)C1CC1	-5	-6
CO/N=C(/C(=O)Nc1ccc(OC)nc1)c1csc(NC=O)n1	6	4
O=C(NCCc1ccc2ccccc2n1)c1cccc(N2CCNC2=O)c1	19	19
COC(=O)c1cc(Br)ccc1S(=O)(=O)Nc1ccc(C(C)=O)cc1	2	1

No new results follow: an excerpt of the list.
mol	NPYLR7 agonist	NPYLR7 agonist max-min
CO/N=C(/C(=O)Nc1ccc(OC)nc1)c1csc(NC=O)n1	6	4
O=C(NCCc1ccc2ccccc2n1)c1cccc(N2CCNC2=O)c1	19	19

Reformatted: entries from further up.
Order of values: NPYLR7 agonist	NPYLR7 agonist max-min
CCn1nnc2c(SCC(=O)NC(C)(C)C)ncnc21
 : -1	29
CN(CCNC(=O)COc1ccc(CC#N)cc1)C1CC1
 : -5	-6

Next structures follow.
mol	NPYLR7 agonist	NPYLR7 agonist max-min
NC(=O)c1nc(-c2ccc(Cl)cc2)nc2c1[nH]c(=O)n2-c1ccc2c(c1)OCO2	-3	-4
COc1cc(N=c2scc(-c3ccccc3)n2CCCN2CCCCC2C)cc(OC)c1 (stereo not drawn)	-1	-5
Cc1nccn1-c1ccc(NC(=O)c2ccc(N3CCNC3=O)cc2)cn1	2	-3
CCOCC(=O)Nc1c(C)nc2ccc(C)cn2c1=O	3	1
Cc1ccc(S(=O)(=O)N2CCC(C(=O)NC(C)CCCC(C)C)CC2)c(C)c1 (stereo not drawn)	15	20
Cc1nn(C)cc1NC(=O)CN1CCCCC1c1ccccn1 (stereo not drawn)	2	2
CC1(C)CNC(=O)c2nc(C3CC(=O)N(C4CC4)C3)[nH]c2C1 (stereo not drawn)	4	1
Cc1cc(N2CCCC2)ccc1NC(=O)CCn1cnc2ccccc2c1=O	0	-7
CC(=O)c1ccc(Oc2nc(C)nc(N3CCCC(C)C3)c2N)cc1 (stereo not drawn)	14	10
Cc1ccc(S(=O)(=O)N2CCCCC2)cc1C(=O)NCc1ccc(CN2CCOCC2)cc1	0	2
COc1ccccc1CN1CCn2nc(C(=O)NCCOc3ccccc3)cc2C1=O	-4	-4
CCN=c1ccc(C#N)cn1C(=O)COc1ccc(C(=O)CC)cc1	-6	-5
O=C(O)c1ccc(Br)c(F)c1	-2	-5
CCNC(=O)CN(CC)S(=O)(=O)c1cnn(-c2ccc(F)cc2)c1C	2	1
CN(Cc1n[nH]c(=O)n1Cc1ccc(Cl)cc1Cl)S(C)(=O)=O	-7	-10
Cc1ccc(C)c(C2CC(=O)Nc3c2c(C)nn3-c2ccc(Cl)nn2)c1 (stereo not drawn)	-2	-5
CCc1nc2ccccc2n1CCC(=O)N1CCc2c(ncnc2N(C)C)C1	-4	-4
O=C1C=CC(=O)N1c1cc(C(F)(F)F)ccc1Cl	-3	-10
COc1ccc(NC(=O)c2c(C)c(N3CCOCC3)c(C)n2Cc2cccc(C(F)(F)F)c2)cc1OC	1	11
C=CCC(C)(C)CN1CCN(C)C2(CCN(C(=O)N(CC)CC)CC2)C1	5	5
O=C(NC1CCC(O)CC1)c1c(OCc2ccccn2)nn2ccsc12 (stereo not drawn)	27	12
Cc1cccc(C(=O)N(CCCN(C)C)c2nc3cc4c(cc3s2)OCO4)c1	1	-1
Nc1nc2c(nc(Br)n2[C@@H]2O[C@@H]3COP(=O)(O)O[C@H]3[C@H]2O)c(=O)[nH]1	-13	-14
COCc1ccc(CN2CCCC(C(=O)c3cc(C)c(OC)c(C)c3)C2)o1 (stereo not drawn)	-2&14	-4&8
N#CCn1cnc2c(nnn2-c2cccc(F)c2)c1=O	-7	-10
Cc1ccc([N+](=O)[O-])cc1S(=O)(=O)N(C)/N=C\c1cnc2ccc(Br)cn12	-5	-9
C=CCN(CC=C)Cn1c(=S)oc2ccc(S(=O)(=O)Nc3ccc(OC)cc3)cc21	0	-1
CCCc1c(C(=O)O)cnn1-c1cccc(F)c1	-2	0
CCOC(=O)C1CCCCN1CC(=O)N1N=C(c2ccccc2F)CC1c1ccc2c(c1)OCO2 (stereo not drawn)	-1	1
Cc1oc(-c2ccccc2)nc1CC(=O)NC(C)CCCO (stereo not drawn)	-6	-6
N#Cc1ccc(COC(CN2CCN(C(=O)C3C[C@H]3c3ccccc3)CC2)c2cccc(N3CCCC3)c2)cc1 (stereo partly drawn)	5	0
Cc1ccc(C)c(CN2CCN(Cc3ccc(C)o3)C(CCO)C2)c1 (stereo not drawn)	12	7
CC(C)(C)NC(NC(=O)c1ccccc1)C(Br)(Br)Br (stereo not drawn)	-8	-18
Cc1cccc(Nc2ccc(N3CCN(C(=O)C4CCCO4)CC3)nn2)n1 (stereo not drawn)	10	7
Cc1oc(-c2ccco2)nc1CN1CCCCC1c1ccccn1 (stereo not drawn)	-4	-7
CC(=O)N(C)c1ccc(NC(=O)CN2CCCC(C(=O)c3ccccn3)C2)cc1 (stereo not drawn)	-3	-9
CCc1nc(N(CCOC)CCC(=O)NC2CC2)c2ccc(Cl)cc2n1	-4	4
Cc1ccc(S(=O)(=O)n2cc(-c3ccc(Cl)cc3)c(N)n2)cc1F	8	1
Cc1cc(C)n(CC(=O)NCc2ccc3c(c2)OCO3)c(=O)c1C#N	-1	-10
O=C(CCc1c[nH]c2ccccc12)NCc1ccccc1-n1cncn1	2	-1
OC1C[C@H]2CC[C@@H](C1)N2c1nccc(CCC(F)(F)F)n1 (stereo partly drawn)	0	13
Cn1c(C(=O)N2CCCC(N)CC2)cc2cc(F)ccc21 (stereo not drawn)	4	7
COc1ccc2c(c1)C1(SCCN1C(=O)NCc1cccc(C)c1)C(=O)N2Cc1cccc(C#N)c1 (stereo not drawn)	9	12
O=C1CC(N(C(=O)c2ccc(-c3cccc(C(F)(F)F)c3)o2)C2CC2)C(=O)N1 (stereo not drawn)	-3	-1
COc1ccc(C2OCC3(CO2)SC2=NCN(C)CN2C3=O)cc1OC (stereo not drawn)	-7	-14
N#CC(NC(=O)c1noc2c1CCCC2)c1cccc(Cl)c1 (stereo not drawn)	1	-11
CN1C(=S)N(c2ccccc2)C(=O)/C1=C\c1ccc(OCC(=O)O)cc1	24	16
c1nc2c(c(NCCc3cn[nH]c3)n1)CCNC2	-2	11
CC(=O)Nc1cccc(NC(=O)CSc2nc3[nH]ncc3c(=O)[nH]2)c1	3	1
COc1cccc(-c2cc(C(=O)NC(Cc3ccccc3)c3ccccc3)n(-c3ccccc3)n2)c1 (stereo not drawn)	9	21

Next section
mol	NPYLR7 agonist	NPYLR7 agonist max-min
COc1ccc(CCC2CCN(S(=O)(=O)c3ccsc3C(=O)O)CC2)cc1	6	3
CCc1cc2c(=O)n(CC)c(=S)[nH]c2s1	-2	-3
CC(C)c1ccccc1NS(=O)(=O)c1ccccc1C#N	-6	-1
CC(C)(C)Nc1c(CCc2ccccc2)nc2ccc(Br)cn12	23	20
O=c1[nH]c(CN2CCOCC2)nc2scc(-c3ccccc3F)c12	26	28
Cc1cccc(N2CCN(S(=O)(=O)c3ccccc3Cl)CC2)c1C	2	0
OC(COCc1ccccc1)CN(Cc1ccccc1)Cc1ccco1 (stereo not drawn)	35	28
Cc1cccn2c(NCc3ccccc3)c(-c3ccc(C(F)(F)F)cc3)nc12	5	7
CN(C1C2CC3CC(C2)CC1C3)S(=O)(=O)c1cccc(Cl)c1 (stereo not drawn)	0	-2
O=C(NCc1ccc(F)cc1)c1c(O)nc2sccn2c1=O	9	10

Of the compounds above, 8 have a CF3 group:
mol	NPYLR7 agonist	NPYLR7 agonist max-min
C#CCNC(=O)c1cnc2c(-c3cccc(C(F)(F)F)c3)cnn2c1C	3	-3
COC(=O)C1CCN(CC(O)COc2cccc(CNCC(F)(F)F)c2)CC1 (stereo not drawn)	12	4
O=C(Cn1cccc(C(F)(F)F)c1=O)NCCC12CC3CC(CC(C3)C1)C2	-7	-8
O=C1C=CC(=O)N1c1cc(C(F)(F)F)ccc1Cl	-3	-10
COc1ccc(NC(=O)c2c(C)c(N3CCOCC3)c(C)n2Cc2cccc(C(F)(F)F)c2)cc1OC	1	11
OC1C[C@H]2CC[C@@H](C1)N2c1nccc(CCC(F)(F)F)n1 (stereo partly drawn)	0	13
O=C1CC(N(C(=O)c2ccc(-c3cccc(C(F)(F)F)c3)o2)C2CC2)C(=O)N1 (stereo not drawn)	-3	-1
Cc1cccn2c(NCc3ccccc3)c(-c3ccc(C(F)(F)F)cc3)nc12	5	7

The list goes on.
mol	NPYLR7 agonist	NPYLR7 agonist max-min
Cc1cccc(C)c1NC(=O)CC1CSc2ncc(C)c(=O)n21 (stereo not drawn)	4	3
CS(=O)(=O)N1N=C(C2CC2)CC1c1cc2cc3c(cc2nc1Cl)OCO3 (stereo not drawn)	1	1
c1ccc2cc(CN3CCCc4c3[nH]c3ccccc43)ccc2c1	-1	-2
Cc1ccccc1Cn1nc(C2CC2)c2cnn(-c3ccc(F)cc3)c2c1=O	1	1
CN1C(=O)NC(c2ccccc2Cl)C2=C1CN(CC(=O)Nc1ccccc1F)C2=O (stereo not drawn)	0	17
Cc1nc2n(n1)C(=O)C(C(c1ccco1)N1CCOCC1)S2 (stereo not drawn)	0	-3
CCCCN1C(=O)C(=Cc2cc(OC)c3c(c2)OCO3)SC1=S	0	-1
Cc1[nH]c2c(C(=O)NC3CCS(=O)(=O)c4ccccc43)cccc2c1C (stereo not drawn)	1	2
Cn1cc(CN(C(=O)c2cnc(-c3ccccc3)nc2)C2CC2)cn1	9	1
COCCCNC(=O)C(NC(=O)c1ccccc1F)C1CCN(C(=O)c2ccccc2C)CC1 (stereo not drawn)	-2	-1
CCc1nc2ccc(C(=O)NC(C)(C)C)cn2c1N(C)Cc1nccs1	22	23
CCCSc1nnc(Cn2c(=O)sc3ccccc32)n1C	8	9
CC(C)n1ncc2c1CCC(NC1CCc3c(cnn3C(C)C)C1)C2 (stereo not drawn)	4&8	2&5
CCOC(=O)CC1=NN(c2ccccc2)C(=O)/C1=C\c1ccc(OC)cc1OC	9	7
Cc1ccc(OCCN2CCC2(C)C(=O)NCc2ccc3c(c2)OCO3)cc1 (stereo not drawn)	-3	-7
CCN1CCCC1CNC(=O)CCC1CCN(Cc2cnc(SC)nc2)CC1 (stereo not drawn)	16	11
OC1CCCN(c2ccnc(NCCc3c[nH]c4ccccc34)n2)C1 (stereo not drawn)	7	0
Cc1cc(Cl)ccc1C(=O)C1CCCN(Cc2c(C)nn(C(C)C)c2C)C1 (stereo not drawn)	11	4
COc1cc(C)ccc1S(=O)(=O)NC(=O)C1(C)CCN1C(=O)CC1CCCCC1 (stereo not drawn)	-3	-4
COCCN(Cc1nccs1)C(=O)C1CC2(CCNCC2)CN1 (stereo not drawn)	24	12
CCOC(=O)c1ccc(NC2=CC(=O)CC(c3ccc(Cl)cc3)C2)cc1 (stereo not drawn)	8	9
O=C(Nc1ccc(I)cc1)c1cc(-c2cccs2)nc2ccccc12	-4	-7
Cc1ccc2c(c1)sc1ncc(NC(=O)c3ccccc3)c(=O)n12	7	2
